Compound activity: PubChem, several laboratories
E coli growth – E. coli growth inhibition, primary screen, OD600; Escherichia coli growth, 23 h; active compounds read low; OD600 absorbance (test concentration not listed); hit rate 0.21% among 330,000;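 active = OD600 absorbance below the run mean of sample wells minus 3.6 SD, in any replicate, cut at about 0.56 in these data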;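 also: stock transfer was 300 nL into about 60 µL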
Beta2AR agonist – beta2AR agonists driving receptor internalization, primary screen, cell-based, FAP fluorogen, flow cytometry; response, % (concentration not given with the values); hit rate 0.43% among 340,000; Am2.2-beta2AR cells; reference of the scale not given here; Beta-2 adrenergic receptor (Homo sapiens), P07550;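 active = response above a set limit, near 3 SD of response in nonfluorescent compounds, cut at about 42% in these data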;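 also: stock transfer was 100 nL into about 11 µL; a reference agonist was the positive control; negative values mostly stem from fluorescent compounds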
Target sequence (P07550 whole entry, looked up): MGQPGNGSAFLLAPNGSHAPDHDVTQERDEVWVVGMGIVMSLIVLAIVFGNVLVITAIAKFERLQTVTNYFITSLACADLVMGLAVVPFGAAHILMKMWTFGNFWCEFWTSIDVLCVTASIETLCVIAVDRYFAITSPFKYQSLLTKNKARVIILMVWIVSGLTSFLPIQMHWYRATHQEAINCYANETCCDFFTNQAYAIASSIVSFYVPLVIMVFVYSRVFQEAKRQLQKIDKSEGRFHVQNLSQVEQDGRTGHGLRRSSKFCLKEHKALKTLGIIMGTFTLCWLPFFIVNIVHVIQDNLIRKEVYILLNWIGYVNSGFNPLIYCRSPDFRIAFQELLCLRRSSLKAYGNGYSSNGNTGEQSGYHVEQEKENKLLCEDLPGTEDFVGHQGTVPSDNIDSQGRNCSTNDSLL
HNF4A DNA FP – change in binding of human HNF4A to DNA, primary screen, biochemical, fluorescence polarization, FITC-DNA | 1 h | activity change, % at 10 µM | hit rate 0.3% among 360,000 | AID 1224865, 2016; in the data active = activity change above about 30%, passing the limit was not always enough;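 also: controls were the assay level and a saturating level of protein; the project sought stronger binding though the title names inhibitors; some compounds called inactive have numbers as strong as hits; positive values seem to mean higher polarization but the record does not say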
FGF22 binding – binders of human FGF22 protein, primary screen, FGF22 synaptogenesis inhibitor project, biophysical, thermal shift, single point; AID 651658, 2012; Fibroblast growth factor 22 (Homo sapiens), Q9HCT0; recombinant FGF22 thermal shift, SYPRO orange fluorescence; percent of sucrose octasulfate shift, DMSO zero; calls only at 9.99 µM; hit rate 1.5% among 340,000;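 active = melting point raised past a set limit in the mean and every replicate; three in four hits are not shown here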
ALR inh – inhibitors of human ALR sulfhydryl oxidase, primary screen, biochemical, H2O2 detection, HRP-luminol luminescence, single point | FAD-linked sulfhydryl oxidase ALR (Homo sapiens), P55789 | purified ALR, DTT oxidation | inhibition, % (concentration not given with the values) | hit rate 3.8% among 290,000 | AID 485317, 2010;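 active = mean and each replicate at 75% or more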;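 also: stock transfer was 7.5 nL into about 7.5 µL; 0% = neutral wells and 100% = wells with inactivated enzyme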
Target sequence (P55789 whole entry, looked up): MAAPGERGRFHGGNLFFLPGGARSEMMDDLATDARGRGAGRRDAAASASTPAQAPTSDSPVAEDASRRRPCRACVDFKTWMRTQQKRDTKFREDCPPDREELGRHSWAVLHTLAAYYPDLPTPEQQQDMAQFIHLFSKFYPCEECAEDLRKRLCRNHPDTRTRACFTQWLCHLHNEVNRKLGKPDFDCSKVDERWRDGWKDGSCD
rRNA inh HTS – reduced GFP signal of wild-type E. coli, primary screen, bacterial rRNA inhibitor project, GFP/RFP fluorescence, OD600, single point. AID 720706, 2013. E. coli WT GFP vs humanized-ribosome RFP mutants, 24 h; active compounds read low; DMSO median 0, no signal -100. GFP signal change (wild-type ribosome), % (no concentration beside the values). hit rate 1.6% among 350,000;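 active = significant combined selectivity score with lowered wild-type GFP, culture density cut under 30%, mutant RFP and density less affected; inactive = any of these conditions unmet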; also: one replicate is shown; some compounds called inactive have numbers as strong as hits
UCH37 DUB inh – inhibitors of human UCH37 deubiquitinase, primary screen, biochemical, Ub-AMC cleavage, fluorescence; purified proteasome/UCH37; inhibition, % (concentration not given with the values); hit rate 0.33% among 330,000;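 active = mean of two replicates above 20%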;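 also: 0% = compound-free wells with enzyme and 100% = wells lacking proteasome; stock transfer was 100 nL into about 20 µL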
Target sequence (Q9Y5K5 whole entry, looked up): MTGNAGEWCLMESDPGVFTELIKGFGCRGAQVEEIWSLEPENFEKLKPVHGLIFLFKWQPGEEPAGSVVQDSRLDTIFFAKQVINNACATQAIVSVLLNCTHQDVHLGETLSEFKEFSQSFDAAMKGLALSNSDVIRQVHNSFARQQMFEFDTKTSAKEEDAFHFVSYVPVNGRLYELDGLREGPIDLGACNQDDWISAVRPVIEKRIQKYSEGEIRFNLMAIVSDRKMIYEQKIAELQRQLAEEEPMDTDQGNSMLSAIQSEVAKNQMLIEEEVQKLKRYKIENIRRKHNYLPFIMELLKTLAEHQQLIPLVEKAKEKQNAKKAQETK
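Schedule: 30 min plus 25 min, room temperature / Material: human UCH37 within purified proteasomes / Technique: AMC fluorescence intensity at 355/460 nm / Buffer or medium: pH 7.4 Tris-HCl (50 mM) with ovalbumin, ATP-MgCl2, DTT / Controls: wells without proteasome as full block, compound-free enzyme plus substrate as uninhibited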
rRNA inh HTS OD600 – second read-out of rRNA inh HTS, no call of its own (marks repeat the call); OD600 change, %; measured here: OD600 growth;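 optical density of the mix in the first replicate; 0 = DMSO median and -100 = no signal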
rRNA inh HTS RFP – second read-out of rRNA inh HTS, no call of its own (marks repeat the call); RFP signal change, %; measured here: RFP humanized mutant strains;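 first replicate; 0 = DMSO median and -100 = no signal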
Starred values were filed as active, the others as inactive; i = inactive; . = no result given; + = active, no number; & = joins results of further samples. Not all compounds are listed; the hit share may differ from the screen's.

SMILES	E coli growth	Beta2AR agonist	HNF4A DNA FP	FGF22 binding	ALR inh	rRNA inh HTS	rRNA inh HTS OD600	rRNA inh HTS RFP	UCH37 DUB inh
Cc1ccc(OC(=O)c2ccc3c(=O)n4c(nc3c2)CCC4)cc1	0.67	5	2.9	i	.	-13	-10	-1.0	4.0
Cc1cc2oc(C(=O)N(Cc3ccco3)C3CCS(=O)(=O)C3)cc(=O)c2cc1Cl (stereo not drawn)	0.71	-13	1.4	.	-3	.	.	.	2.3
CC(NC(=O)CN(C)S(=O)(=O)c1ccc2c(c1)c(=O)n(C)c(=O)n2C)c1ccccc1 (stereo not drawn)	0.69	1	-0.1	i	3	2	4	-1.6	-0.3
COc1cc(C(C(=O)NC2CCCCC2)N(C(=O)c2snc(C(N)=O)c2N)c2ccc(C)cc2)ccc1O (stereo not drawn)	0.62	-1	3.5	i	-2	6	8	6.4	-64
C=CCN(C(=O)c1csnn1)C(C(=O)NC1CCCCC1)c1ccc(C)cc1 (stereo not drawn)	0.69	-7	-1.0	i	2	1	8	-1.1	3.2
O=C1/C(=C/c2cccnc2)SC(=S)N1c1ccccc1	0.7	1	-0.4	i	-4	0	9	1.1	6.5
CCOC(=O)C(CO)(NC(C)=O)C(=O)OCC	0.7	7	-0.7	.	-4	.	.	.	3.5
NC(=O)c1ccccc1[N+](=O)[O-]	0.65	-4	1.3	i	-6	6	2	-0.1	0.3
COc1cc(C)c2c(c1OC)C(=O)CC2	.	-9	-0.7	i	.	8	2	1.7	.
C=CCOC(=O)C1=C[C@@H](C2CCCCC2)C[C@@H](OCc2ccc(CO)cc2)O1	.	0	-2.8	i	1	.	.	.	-0.3
Cc1ccc(-n2[nH]c(C)c(C=Nc3ccc(S(=O)(=O)Nc4nccs4)cc3)c2=O)c(C)c1	0.61	.	.	.	0	.	.	.	6.8
CCC(C)[C@H](NC(=O)NCc1cccs1)C(=O)O (stereo partly drawn)	0.78	1	2.5	.	-1	.	.	.	0.5
CCOC(=O)c1cnn(-c2ccc(C(F)(F)F)cn2)c1N	0.72	-4	5.7	.	-14	.	.	.	-2.0
CN(C)Cc1cn(CCC(=O)O)c2ccccc12	0.68	2	2.8	.	17	.	.	.	2.4
O=C(CN(CC1CCCO1)C(=O)CNS(=O)(=O)c1ccc(F)cc1)NC1CCCC1 (stereo not drawn)	0.67	-9	0.2	i	1	-1	-1	-3.1	0.2
CCCCOC(=O)N/N=C/C=C/c1ccccc1	.	-3	-0.5	i	-4	6	16	2.5	.
O=C(Cc1cccs1)N=Nc1c(O)[nH]c2ccccc12	0.7	-7	-2.2	i	-3	-1	-3	-1.9	2.8
CC(C)NC(=O)CSc1nc(-c2ccccc2)cs1	0.64	-11	0.1	i	.	6	7	0.7	0.4
CC(Oc1ccc(Br)cc1)C(=O)Nc1ccc(S(=O)(=O)N(C)C2CCN(C)CC2)cc1 (stereo not drawn)	0.66	12	-4.5	i	-3	1	-9	-0.5	3.4
COc1ccccc1C=NN1CCCCCC1	0.67	.	-1.9	i	.	9	13	2.2	4.1
O=C(CCCCn1c(=O)[nH]c2ccsc2c1=O)NCC1CCCO1 (stereo not drawn)	0.72	-8	-0.5	.	-24	.	.	.	3.3
Cc1ccc2c(CN3CCCCC3)cc(=O)oc2c1C	0.64	0	2.7	i	-3	1	2	-4.9	-1.2
COC(=O)c1cc(-c2ccc(Cl)cc2)n(-c2ccc(S(N)(=O)=O)cc2)n1	0.71	24	2.2	i	-2	-26	-33	-7.3	2.0
CCCn1c(C)cc(C(=O)COC(=O)c2cc(=O)[nH]c3ccccc23)c1C	.	.	3.2	i	.	4	-12	0.0	.
CCOC(=O)C1(CC2CCCCO2)CCN(Cc2nc3ccccc3[nH]2)CC1 (stereo not drawn)	0.73	5	3.9	i	.	0	2	3.2	-3.1
Continuation:
SMILES	E coli growth	Beta2AR agonist	HNF4A DNA FP	FGF22 binding	ALR inh	rRNA inh HTS	rRNA inh HTS OD600	rRNA inh HTS RFP	UCH37 DUB inh
Cc1ccc(OCCn2c3ccccc3n3nc(C)c(=O)nc23)cc1	0.72	1	0.1	.	-5	.	.	.	1.3
CCC(c1nnnn1CCOC)N1CCN(C(=O)c2ccco2)CC1 (stereo not drawn)	0.68	-1	3.1	.	1	.	.	.	0.1
O=C(Nc1cccc(-n2cnnn2)c1)c1cc(Cl)nc(Cl)c1	0.68	-5	0.4	i	-1	2	12	5.0	0.6
CN(CCc1ccccc1)C(=O)c1cc(COc2cccc(C(F)(F)F)c2)on1	0.7	7	-1.9	i	.	-40	-49	-8.3	0.8
O=C(Cn1cnc2ccccc2c1=O)N1CCN(Cc2ccccc2)CC1	0.71	9	28	.	-4	.	.	.	0.3
COc1ccc(OCC(=O)Nn2c(-c3ccc(OC)cc3)nc3ccccc3c2=O)cc1	0.68	1	1.7	i	.	.	.	.	4.0
CN(C)Cc1c(O)ccc2c3c(c(=O)oc12)CCCCC3	0.74	11	5.7	.	90*	.	.	.	i
Cc1ccc(SCc2nc(-c3ccncc3)no2)cc1	0.72	-4	-0.3	.	8	.	.	.	2.3
COc1ccc(-c2cn3c(C)c(C(=O)NCc4ccc5c(c4)OCO5)sc3n2)cc1	0.75	5	-3.4	i	2	-4	2	1.0	3.4
Nc1nnc(CC(=O)N/N=C/c2ccc(-c3ccc(F)cc3)o2)s1	.	-4	5.5	i	1	-5	12	0.9	.
O=C(CSc1nnc(NC(=O)c2c(F)cccc2F)s1)Nc1ccc(F)cc1	0.66	7	0.5	.	-4	-42	-71	-13	-1.1
COc1ccc(/C=C2\Oc3cc(OC(=O)N4CCOCC4)ccc3C2=O)c(OC)c1	0.68	4	99*	i	-2	16	10	2.6	-7.9
COCCCNC(=O)CSc1nc2c(sc(=S)n2-c2cc(Cl)ccc2OC)c(=O)[nH]1	0.65	-6	21	+	-18	2	6	-0.3	14
O=C(NC(=S)Nc1ccc(F)cc1)C1CCCCC1	0.71	-5	-1.2	i	10	10	8	-0.9	-1.2
COC(=O)[C@@]12CCCCN1[C@H](c1ccc(-c3ccc(OC)cc3)c(OC)c1)[C@@H]1C(=O)N(C)C(=O)[C@@H]12	.	0	2.4	i	.	4	-1	-6.7	1.9
COc1cc(C(=O)N2CCN(C(=O)Cc3ccccc3)CC2)cc(OC)c1OC	0.77	-3	-5.8	.	-2	.	.	.	1.4
Cc1cc(C)c(-c2csc(NC(=O)CCCc3nc4ccccc4c(=O)[nH]3)n2)c(C)c1	0.66	10	1.5	i	-8	-10	-25	2.1	-0.9
Cc1ccc(C(=O)N2CCN(c3ccccn3)CC2)cc1C	.	-6	0.9	i	0	-5	0	2.7	.
COc1cc(OC)cc(C(=O)N2CCN(C(=O)c3cccnc3)CC2)c1	0.68	-3	1.1	i	-1	2	9	-0.7	0.3
CN(c1ccccc1)S(=O)(=O)c1ccc(C(=O)Nc2cccc(S(=O)(=O)N3CCOCC3)c2)cc1	.	.	1.1	i	.	-2	-16	2.9	.
O=C(CSc1n[nH]c(-c2cccnc2)n1)Nc1ccccc1[N+](=O)[O-]	0.7	-4	-0.1	i	-1	-5	-6	-1.3	-0.7
CC(C)NC(=O)N(C)C[C@H]1Oc2cc(C#Cc3ccc(F)cc3)ccc2S(=O)(=O)N([C@H](C)CO)C[C@H]1C	.	.	-4.4	i	.	-6&-7	-4&-17	2.3&4.5	.
CN(C)S(=O)(=O)c1ccc(N2CCCC2)c(C(=O)NCc2cccc(C(F)(F)F)c2)c1	0.73	-1	-2.9	.	.	.	.	.	-12
O=C(Nc1ccc(NC(=O)c2cccs2)cc1)c1cccs1	0.76	-10	-6.4	i	-9	8	8	0.5	-22
O=C(COC(=O)C1CC(O)CN1S(=O)(=O)c1ccccc1[N+](=O)[O-])c1ccc[nH]1 (stereo not drawn)	0.69	10	3.9	i	-7	.	.	.	2.8

Five entries from above, as a markdown table.
| compound | E coli growth | Beta2AR agonist | HNF4A DNA FP | FGF22 binding | ALR inh | rRNA inh HTS | rRNA inh HTS OD600 | rRNA inh HTS RFP | UCH37 DUB inh |
| --- | --- | --- | --- | --- | --- | --- | --- | --- | --- |
| Cc1cc2oc(C(=O)N(Cc3ccco3)C3CCS(=O)(=O)C3)cc(=O)c2cc1Cl (stereo not drawn) | 0.71 | -13 | 1.4 | . | -3 | . | . | . | 2.3 |
| CC(NC(=O)CN(C)S(=O)(=O)c1ccc2c(c1)c(=O)n(C)c(=O)n2C)c1ccccc1 (stereo not drawn) | 0.69 | 1 | -0.1 | i | 3 | 2 | 4 | -1.6 | -0.3 |
| COc1cc(C(C(=O)NC2CCCCC2)N(C(=O)c2snc(C(N)=O)c2N)c2ccc(C)cc2)ccc1O (stereo not drawn) | 0.62 | -1 | 3.5 | i | -2 | 6 | 8 | 6.4 | -64 |
| C=CCN(C(=O)c1csnn1)C(C(=O)NC1CCCCC1)c1ccc(C)cc1 (stereo not drawn) | 0.69 | -7 | -1.0 | i | 2 | 1 | 8 | -1.1 | 3.2 |
| O=C1/C(=C/c2cccnc2)SC(=S)N1c1ccccc1 | 0.7 | 1 | -0.4 | i | -4 | 0 | 9 | 1.1 | 6.5 |

Following part
SMILES	E coli growth	Beta2AR agonist	HNF4A DNA FP	FGF22 binding	ALR inh	rRNA inh HTS	rRNA inh HTS OD600	rRNA inh HTS RFP	UCH37 DUB inh
CC(=O)C1=C(N2CCCCC2)CCC1=O	0.72	6	1.2	.	5	.	.	.	0.5
CC12CC3CC(C)(C1)CC(C(=O)NCc1cccnc1)(C3)C2	0.62	-4	0.2	i	-1	-24	-27	-3.3	4.4
CCOC(=O)c1cc(C)sc1NC(=O)CSc1nnnn1C	0.69	-6	-0.5	i	8	-1	-5	-1.0	1.1
COc1ccc(NS(=O)(=O)c2cc(N=Nc3c(O)[nH]c(=O)[nH]c3=O)ccc2OC)cc1Br	.	.	3.1	i	.	-11	9	21	.
COc1ccc(CCN2CC(C(=O)N(C)Cc3ccc4nsnc4c3)CCC2=O)cc1 (stereo not drawn)	0.74	-5	-4.8	i	0	3	-6	-0.8	0.4
CN(C(=O)COC(=O)c1ccc2c(c1)NC(=O)CS2)C1CCS(=O)(=O)C1 (stereo not drawn)	0.68	8	3.3	.	-12	.	.	.	1.0
OC(CNCc1ccc(Cl)c(Cl)c1)c1ccccc1 (stereo not drawn)	0.62	-4	0.9	i	-2	-5	-5	-2.0	3.5
CC1(C)Cc2ccccc2C(/C(=N/O)C(N)=O)=N1	.	6	0.8	.	-1	.	.	.	.
CCOC(=O)CC(NS(=O)(=O)c1ccc2[nH]cc(C(=O)O)c(=O)c2c1)c1ccc(OCC)c(OC)c1 (stereo not drawn)	0.66	-5	-15	i	-5	12	14	-0.3	5.3
COc1ccc(C(=O)Nc2ccc(OC)c([N+](=O)[O-])c2)cc1Br	0.69	-3	0.1	i	1	.	.	.	4.8
Cc1cccc(NC(=O)C2C3C=CC(O3)C2C(=O)O)c1C (stereo not drawn)	.	6	-1.2	i	-7	6	10	0.0	.
O=C(NCC1CCCO1)C(=O)N/N=C/c1ccc(O)c(Cl)c1 (stereo not drawn)	.	-1	0.3	i	64	6	3	-5.4	.
COC(=O)c1ccc(NS(=O)(=O)c2ccc3[nH]c(=O)oc3c2)cc1	0.66	11	-5.9	i	.	10	6	2.7	0.4
COc1ccc(CCNC(=O)CSc2nc3cc(Cl)ccc3o2)cc1OC	0.68	-5	-2.4	.	-6	.	.	.	-4.0
CC(C)C(=O)Nc1cccc(-c2nc3ncccc3o2)c1	0.68	1	0.5	i	.	-3	-2	-1.2	-13
